AID504770: growth inhibition of E. coli YBA685, primary screen, V. cholerae RctB inhibitors; z-score (concentration not given with the values); E. coli YBA685 rctB-dependent plasmid, OD600 growth, 3 h; stronger effect = lower value; AID 504770, 2011; 130,000 compounds, 0.27% hits;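 active means z-score under -2 on both plates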;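 further: wells of about 30 µL received 100 nL stock; score is relative to mean and SD of the test wells; the first replicate is given; strong numbers were not always called active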
Ba CapD inh: Bacillus anthracis CapD inhibitors, primary screen, biochemical, fluorescence intensity; 140,000 compounds, 0.23% hits; z-score (concentration not given with the values); AID 492967, 2010; purified CapD enzyme, fluorescence intensity read-out; stronger effect = lower value; some hits fall short of the stated cut;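 active means z-score under -4 in either of two replicates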;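 further: stock transfer was 100 nL into about 40 µL; score is relative to mean and spread of the plate; one replicate is shown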
Active calls of the source: *; i = inactive; . = no result given.

Molecule | AID504770 | Ba CapD inh
O=C(NCCCN1CCOCC1)c1cc2ccccc2oc1=O | -1.35 | .
CSc1ncc(C(=O)OCC(=O)N2CC(C)OC(C)C2)n1-c1ccccc1 (configuration not stated) | -0.5 | .
CCOC(=O)C1C(=O)NC(c2ccccc2)=NC1c1c(F)cccc1Cl (configuration not stated) | . | 0.325
COc1cc2c(cc1OC)C(c1ccccc1)N(C(=O)c1ccco1)CC2 (configuration not stated) | 0.95 | -0.04
COc1ccc(CNC(=O)C2CCCN(c3ncnc4onc(-c5ccc(F)cc5)c34)C2)cc1 (configuration not stated) | -0.55 | 7.38
N#Cc1ccccc1OCC(=O)OCc1ccccc1F | 0.25 | 0.195
Cc1[nH]c2ccccc2c1C(c1ccccc1)N1CCN(C)CC1 (configuration not stated) | 0.35 | 0.015
Cn1c(=O)c2c(nc(SCc3ccc(F)cc3)n2Cc2ccccc2)n(C)c1=O | 0 | 0.77
COC(=O)C1C2C=CC3(CN(C4CCCCC4)C(=O)C13)O2 (configuration not stated) | -1.35 | -0.5
COc1ccc(C2OC(c3ccc(S(=O)(=O)N4CCCCC4)cc3)=NN2C(C)=O)cc1 (configuration not stated) | 0.2 | 9.52
Cc1ccc(C(=O)OCC(=O)c2ccccc2)cc1 | 0.25 | 0.61
CC(C)Sc1nc2cc(S(=O)(=O)N3CCCCC3)ccc2o1 | 0.65 | .
CC(C)=NNC1=NC(C)(C)Cc2ccccc21 | -0.4 | -0.21
CC(C)(C)OC(=O)/N=C(\N)N(CCCC(NC(=O)OC(C)(C)C)C(=O)N1CCC(NC(=O)OC(C)(C)C)C1)C(=O)OC(C)(C)C (configuration not stated) | . | -0.71
COc1cc(C2CC(C(F)(F)F)n3ncc(C(=O)N4CCN(Cc5ccccc5)CC4)c3N2)cc(OC)c1OC (configuration not stated) | . | 0.13
O=C1c2ccccc2C(=O)N1CCCC(=O)N1c2ccccc2Sc2ccccc21 | 0.15 | -0.35
CCOC(=O)c1c(N2C(=O)C3ON(c4ccccc4C)C(c4ccccc4)C3C2=O)sc(C)c1C (configuration not stated) | 0.5 | -0.74
NS(=O)(=O)c1ccc(C(=O)N/N=C/c2ccc(OCC(=O)O)cc2)cc1 | . | -1.75
CCOC(=O)c1cc(-c2ccc(OC)cc2)n(CCC(=O)N2CCc3ccccc32)c1C | 0.1 | 0.21
CCOC(=O)C1=C(C)Nc2ccccc2S1 | . | -0.56
COc1ccccc1CNS(=O)(=O)Cc1ccccc1 | -0.65 | .
CCOc1ccccc1CN1CCC(N(C)S(=O)(=O)c2ccc(Br)cc2CC)C1 (configuration not stated) | . | 0.4
COc1ccc(CCN2C(=O)C3C4C=CC(O4)C3C2=O)cc1OC (configuration not stated) | -1.75 | -0.025
O=C(O)c1cc(Cl)ccc1OCc1ccccc1 | 1 | 0.54
Brc1ccc(C2=Nc3ccccc3SC(c3ccccc3)C2)cc1 (configuration not stated) | . | 7.07
O=C(Cn1c(=O)oc2ccccc21)NCCc1ccccc1 | -0.25 | 60.5
CC(=O)NC(CC(C)C)C(=O)O (configuration not stated) | -0.25 | 0.305
CC1=C(C#N)C(c2ccccc2)C2=C(N1)c1ccccc1C2=O (configuration not stated) | -0.25 | -0.58
O=C(CCN1C(=O)C2CC=CCC2C1=O)N1CCN(c2ccccn2)CC1 (configuration not stated) | -0.1 | 0.33
Cc1ccc(-n2c(=S)sc3c(=O)n(-c4ccccc4)c(=S)[nH]c32)c(C)c1 | . | -2.12

The closing 7 records of the part before open the next one.
Molecule | AID504770 | Ba CapD inh
O=C(O)c1cc(Cl)ccc1OCc1ccccc1 | 1 | 0.54
Brc1ccc(C2=Nc3ccccc3SC(c3ccccc3)C2)cc1 (configuration not stated) | . | 7.07
O=C(Cn1c(=O)oc2ccccc21)NCCc1ccccc1 | -0.25 | 60.5
CC(=O)NC(CC(C)C)C(=O)O (configuration not stated) | -0.25 | 0.305
CC1=C(C#N)C(c2ccccc2)C2=C(N1)c1ccccc1C2=O (configuration not stated) | -0.25 | -0.58
O=C(CCN1C(=O)C2CC=CCC2C1=O)N1CCN(c2ccccn2)CC1 (configuration not stated) | -0.1 | 0.33
Cc1ccc(-n2c(=S)sc3c(=O)n(-c4ccccc4)c(=S)[nH]c32)c(C)c1 | . | -2.12
Cc1cc(NC(=O)c2ccccc2OCc2ccccc2)no1 | -0.3 | -0.37
COc1ccc(NC(=O)c2cccc(N3C(=O)C4C5C=CC(C5)C4C3=O)c2)cc1Cl (configuration not stated) | . | 0.795
O=C1CCCC/C1=C/Nc1ccc(N/C=C2/CCCCC2=O)cc1 | 0.25 | 0.12
O=C(Nc1ccc(C(F)(F)F)cc1)c1cnc(N2CCN(c3ccccn3)CC2)c2ccccc12 | 0.2 | -0.235
O=C1CC(N2CCCc3ccccc32)C(=O)N1c1ccc(Br)cc1F (configuration not stated) | -0.65 | 0.015
CCOC(=O)C1=CN(Cc2ccc(OC)cc2)C=C(C(=O)OCC)C1c1cc(OC)c(OC)cc1Br | . | 2.13
O=C(NN=C1CCN(S(=O)(=O)c2ccccc2)CC1)c1cccs1 | . | -0.26
O=C(NCc1ccco1)C1=NN(c2ccccc2)C(=O)CC1 | 0.5 | .
CCC1CSC(Nc2cccc(C(F)(F)F)c2)=N1 (configuration not stated) | 0.5 | -0.655
COC(=O)c1cc(N)cc(C(=O)OC)c1 | -0.05 | .
Cc1cnc(NC(=O)[C@@H](NC(=O)c2ccccc2F)C(C)C)s1 | 1.35 | .
CCN(CC)C(=O)Cn1cc(C(=O)C2CC2)c2ccccc21 | -0.25 | 0.38
CC(C)(C)OC(=O)Nc1cccc(C(=O)O)c1 | -1.1 | .
Cc1ccc(N2CCN(c3ncnc4c3cnn4-c3ccccc3)CC2C)cc1 (configuration not stated) | . | -0.455
CN1CCN(C(=O)c2ccc(C(=O)N3CCN(C)CC3)cc2)CC1 | 2.1 | 0.13
CC1=C(C(N)=O)C(c2ccco2)C(C#N)=C(SCC(N)=O)N1 (configuration not stated) | -1.1 | -0.745
O=S(=O)(c1ccc(Br)cc1)N1CCN(CCCC(c2ccc(F)cc2)c2ccc(F)cc2)CC1 | . | 0.71
CC(=O)c1ccc(Oc2ccc([N+](=O)[O-])cc2)cc1 | . | -1.2
CCOC(CNC(=O)c1cccc(N)c1)(OCC)c1ccccn1 | . | 3.15
O=C1CCN(C(=O)c2ccc(Cl)cc2)c2cc3ccccc3cc21 | -1.2 | -0.21
Cc1ccc(N(C(=O)c2ccc(C(C)(C)C)cc2)C2C=CS(=O)(=O)C2)cc1 (configuration not stated) | -0.3 | 0.01
O=C(Nc1ccc2c(c1)OCO2)c1cc(S(=O)(=O)N2CCN(c3ccccc3)CC2)ccc1Cl | 0.65 | .
Brc1cnc2nc(-c3ccccc3)[nH]c2c1 | 0.35 | .
CCOC(=O)c1cccc(NC(=O)CNS(=O)(=O)c2cccs2)c1 | 0.45 | 0.695
COc1ccc(C2(CNC(=O)CC(c3ccccc3)c3ccccc3O)CCCC2)cc1OC (configuration not stated) | . | -0.22
C=CCn1c(SCC(=O)Nc2ccccc2)nc2sc3c(c2c1=O)CCC3 | . | -0.045
CC(=O)Nc1ccc2nc(SCC(=O)N3CCc4ccccc43)sc2c1 | . | 0.58
O=C(Nc1ccccc1Cl)c1cc(S(=O)(=O)N2CCN(c3cccc(Cl)c3)CC2)ccc1F | . | -0.91
Cc1cccc(C)c1-n1ncc(C(=O)O)c1C1CCNCC1 | 0.55 | 0.04
CC(=O)Nc1ccc(S(=O)(=O)Nc2nc3ccccc3nc2Sc2nncn2C)cc1 | -0.4 | .

Retrieved by structure from the entries so far:
Molecule | AID504770 | Ba CapD inh
C=CCn1c(SCC(=O)Nc2ccccc2)nc2sc3c(c2c1=O)CCC3 | . | -0.045
O=C(NCc1ccco1)C1=NN(c2ccccc2)C(=O)CC1 | 0.5 | .
Cc1ccc(N(C(=O)c2ccc(C(C)(C)C)cc2)C2C=CS(=O)(=O)C2)cc1 (configuration not stated) | -0.3 | 0.01
Brc1cnc2nc(-c3ccccc3)[nH]c2c1 | 0.35 | .
CCC1CSC(Nc2cccc(C(F)(F)F)c2)=N1 (configuration not stated) | 0.5 | -0.655
CC(=O)c1ccc(Oc2ccc([N+](=O)[O-])cc2)cc1 | . | -1.2

Carrying on.
Molecule | AID504770 | Ba CapD inh
CC(=O)Nc1ccc(S(=O)(=O)Nc2cccc3c2N(C(C)=O)CC3)cc1 | . | -0.48
CC(CC(=O)NCC1(N(C)C)CCCCC1)c1ccccc1 (configuration not stated) | 0.05 | .
Cc1nc(-c2ccc3ccccc3c2)cs1 | -0.35 | 0.31
Cc1cc(C(=O)NN=C2CCCC2)c(C)n1-c1ccccc1 | -0.2 | .
O=C(CCc1ccccc1O)N1CCN(S(=O)(=O)/C=C/c2ccccc2)CC1 | 0.25 | .
CC(C(=O)NC1(C#N)CCCCC1)N1CCNC(=O)C1 (configuration not stated) | -0.2 | .
COC(=O)C1CC(OCc2ccccc2)CN1S(=O)(=O)c1ccc(Oc2cccc(Cl)c2C#N)cc1 (configuration not stated) | . | -0.66
O=C(CCS(=O)(=O)c1cccc2nsnc12)N1CCCCC1 | 0 | 0.295
Nc1cccc2c1C(=O)N(CC(=O)N1CCc3ccccc31)C2=O | -2.05 | .
COc1cccc(NC(=O)CN(C)C(=O)c2ccccn2)c1 | -0.05 | .
Cn1c(=O)c2cc(C(=O)Nc3cccc(C(F)(F)F)c3)sc2c2ccccc21 | -0.8 | 0.265
Cc1ccnn1C(C)C(=O)O (configuration not stated) | -0.05 | .
CC1(C)OC(=O)N(CC2CCCO2)C1(C)O (configuration not stated) | 1.7 | -0.17
CCCCCCC(=O)Nc1cccc(C(=O)N/N=C/c2cc(OC)c(OC(C)=O)c(OC)c2)c1 | . | 0.17
CCOC(=O)NCc1ccccc1 | . | 0.33
C#Cc1ccc(C#C)cc1 | -0.15 | .
Cc1nn(-c2ccc(Cl)cc2)c2sc(C(=O)OCC(N)=O)cc12 | -1.35 | .
COCc1cnc(Nc2nc3ccccc3o2)nc1C(=O)OC | -0.6 | 0.125
CC(=O)Nc1ccc(S(=O)(=O)NC2CCN(Cc3ccccc3Sc3ccc(Cl)cc3)C2)cc1 (configuration not stated) | . | 0.335
COC(=O)Cc1[nH]n(-c2nc3ccccc3s2)c(=O)c1C=Nc1ccc(C)cc1 | -0.1 | -0.22
Cn1c(=O)c2c(nc3n(-c4ccccc4)c(-c4ccc(Br)cc4)cn23)n(C)c1=O | . | -0.515
C=CCC(Nc1cccc(C)c1)c1ccco1 (configuration not stated) | -0.15 | -0.69
COc1ccccc1-n1c(SCC(=O)N2CCc3ccccc32)nc2c(c1=O)SCC2 | . | -0.455
CCc1ccc(NC(=O)CN2C(=O)CC(C)Sc3ccccc32)cc1 (configuration not stated) | -1.15 | 0.08
NC(=O)C1Cc2ccccc2CN1 (configuration not stated) | 0.3 | .
O=C(O)CCN1CCN(C2CCCCC2)CC1 | -0.1 | .
CN(C)CCCSc1nnc2c(n1)[nH]c1ccccc12 | . | -1
O=C(N/N=C/c1ccc[nH]1)c1ccccc1O | -0.9 | .
C[N+]1(CC(=O)OCCCC2CCCCC2)CCCCC1 | -0.5 | 11.6
Cc1ccc(C(=O)CSc2nc3ccccc3c(=O)[nH]2)cc1 | 1.35 | 0.63
CCSc1nc2c(c(=O)n1C)SCC2 | 0.2 | .
Nc1nonc1-n1nnc(C(=O)N/N=C2\CCc3ccccc32)c1-c1ccccc1 | 1.1 | -0.12
O=c1c(O)c(-c2ccc3c(c2)OCO3)oc2ccccc12 | 0.35 | 0.415
O=C(O)c1cc(Br)c2ccccc2c1O | -0.8 | i
CSC1=C(C#N)C2(CCCCC2)C2=C(CCC2)N1 | -0.8 | -0.21
Fc1ccc(C2C=C(c3ccc(Br)cc3)Nc3nc4ccccc4n32)cc1 (configuration not stated) | . | -0.465
O=C(OCc1nnc(-c2ccccc2)o1)C1CC(=O)N(c2ccccc2)C1 (configuration not stated) | 1.45 | -0.435
COc1ccc(-c2cc3nc4c(c(N5CC(C)CC(C)C5)n3n2)CCC4)cc1 (configuration not stated) | 1.4 | .
Cc1oc2ncn(CC(C)C)c(=O)c2c1C(=O)N=C1NC(=O)CS1 | 0.75 | -0.005
Fc1cccc(Cl)c1Cn1nnc(-c2ccccc2C(F)(F)F)n1 | -0.65 | -0.125
O=C1CCCC(=O)C1C(=O)C1CCN(S(=O)(=O)c2ccccc2)CC1 | . | 0.335
Cc1cc(C)c(NC(=O)c2[nH]c3c(c2C)C(=O)CCC3)c(C)c1 | -0.7 | .
Clc1ccc(Nc2nnnc3ccccc23)cc1Cl | 0.05 | -0.285
O=C1Nc2ccccc2/C1=C\C1=Cc2ccccc2OC1 | 0.1 | -0.255
CCOC(=O)CN1C(=O)C2(OCCCO2)c2ccccc21 | 0.1 | 3.05
CCN(CC)c1ccc(C=Nc2ccc(Br)cc2)cc1 | 1.6 | -1.07
CCOC(=O)C1=C(NC(=O)c2cccc(F)c2)Nc2ccccc2N=C1 | -0.65 | .
CN(C)S(=O)(=O)c1cccc(-c2nnc(SCc3cc(Cl)cc4c3OCOC4)n2N)c1 | 1.55 | .
NS(=O)(=O)c1ccc(NC2SC(=O)N(c3ccccc3)C2=O)cc1 (configuration not stated) | 2.15 | 0.02
O=S(=O)(c1ccc(OCc2cc(Cl)cc3c2OCOC3)cc1)c1ccc(OCc2cc(Cl)cc3c2OCOC3)cc1 | . | 0.06
Cc1ccc(C)n1CCN1CCN(C(=O)C(C)(C)C)CC1 | 0.35 | 0.14
CCOc1ccc(C2c3[nH]c4ccccc4c3CCN2S(=O)(=O)c2ccccc2)cc1 (configuration not stated) | . | 0.11
CCCC(=O)Nc1cc(Cl)cc(Cl)c1 | -0.45 | -0.07
CC1CCN(C(=O)c2ccc(C(C)(C)C)cc2)CC1 | -0.1 | 0.225
